High-throughput results: PubChem, several laboratories
PrP 5UTR inh – inhibition of PrP 5' UTR reporter expression; 340,000 tested, 0.35% active; inhibition, % (no concentration beside the values); AID 488862, 2010; cell-based PrP 5' UTR mRNA reporter, plate reader;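 active means every replicate at 50% or more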;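 further: 0 = median of the neutral control wells; tested in H4 reporter cells; numbers are from one replicate; inactives centre near -14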
Autofluor counter – compound fluorescence in toxin protease inhibitor counterscreen. AID 624483. 360,000 tested, 3.1% active. compound autofluorescence counterscreen, microsphere flow cytometry; hits give high values. fluorescence intensity (no concentration beside the values);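 active means at least 3 SD above the mean of all compounds, about 16000 in these data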;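 further: 100 nL of 1 mM stock went into each well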
Mtb hypoxia inh – PubChem AID 1159583; M. tuberculosis hypoxia-regulated fluorescent reporter, fluorescence; fluorescence inhibition, % (concentration not given with the values); 300,000 tested, 0.1% active;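 active means 35 to 45% if threefold the growth effect, above 45% if 1.5-fold the growth effect; inactive means the rest, general growth blockers included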;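 further: wells of about 50 µL received 100 nL stock; 0% = vehicle wells and 100% = reference inhibitor wells; whole bacteria with a GFP reporter of the hypoxia response; strong numbers were not always called active; many hits fall short of the cut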
RN4220 kill – growth inhibition of S. aureus RN4220, primary screen, OD600 | inhibition, % (test concentration not listed) | 330,000 tested, 0.33% active | 16 h | AID 1259311, 2017;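 active means z-score of -3 or lower and OD600 up to 0.18 on both plates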;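 further: plate controls were untreated cells for no effect and reference antibiotic for full effect; stock transfer was 100 nL into about 80 µL; one replicate is shown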
ugtP null kill – growth inhibition of ugtP-null S. aureus, primary screen, RN4220 ugtP deletion, OD600; 330,000 tested, 0.54% active; 16 h; some inactives read as strong as hits; AID 1259309, 2017; growth inhibition, % (no concentration beside the values);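 active means z-score under -3 and OD600 up to 0.15 on both plates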;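 further: plate controls were untreated wells for no effect and antibiotic for full effect; wells of about 80 µL received 100 nL stock; the first replicate is given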
BJeLR viability – MLPCN primary cell-based screen for lethality selective to Ras in HRASV12 cells. BJeLR (HRASV12) viability, CellTiter-Glo ATP luminescence, 48 h; reference of the scale not given here. AID 1554, 2009. 300,000 tested, 0.17% active. inhibition, % (no concentration beside the values);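 active means replicate mean above 50%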;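 further: 50 nL library stock added to about 25 µL; numbers are from one replicate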
Mtb hypoxia inh growth – second read-out of Mtb hypoxia inh, no call of its own (marks repeat the call); growth inhibition, %; measured here: M. tuberculosis growth (absorbance);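 0% = vehicle and 100% = reference antibiotic; read after six days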
An asterisk follows results filed as active; . = not tested or not shown. Not a hit list. About 4% of those tested had a hit in this group.

SMILES	PrP 5UTR inh	Autofluor counter	Mtb hypoxia inh	Mtb hypoxia inh growth	RN4220 kill	ugtP null kill	BJeLR viability
Cc1nc(N2CCOCC2)sc1C(=O)NN	-5	4523	8	2	3.1	5	16
COc1ccc(/C(C)=N/NC(=O)CNC(=O)c2ccco2)cc1	-6	3605	.	.	.	.	-1
COc1ccc(Cn2nnnc2C(c2ccccc2Cl)N2CCC(C(N)=O)CC2)cc1 (stereo not given)	-12	4429	-4	9	0.8	-12	-6
COC(=O)C1=C(C(=O)OC)C2N(C)c3ccccc3[C@@]23CC(CO)N(C(=O)C2CCC2)C3=N1 (stereo not given in full)	.	.	-1	8	-1.9	-14	.
COC(=O)c1ccc(NC(=O)Cc2ccccc2)cc1	-44	9743	-6	7	0.9	-5	6
COc1ccc(NC(=O)CCN2CCCCCC2)cc1	-8	4026	.	.	0.5	1	3
Cc1csc(=O)n1CC(=O)OCc1nnc(-c2ccc(Cl)cc2)o1	2	5883	1	9	3.1	-3	-9
O=C(NCc1ccco1)C12CN(Cc3ccccc3)CC1C(c1ccc([N+](=O)[O-])cc1)=NO2 (stereo not given)	-20	3637	-5	6	-2.3	-3	8
CCOC(=O)N1CCC(NC(=O)c2oc3c(F)cccc3c2C)CC1	-40	5773	9	4	0.0	12	2
CCCCNc1cc(=O)oc2ccccc12	-6	3162	5	-3	4.2	-3	3
Cc1ccc(C(=O)N/C(=C/c2cccs2)C(=O)NCc2ccco2)cc1	7	8546	.	.	.	.	-15
CC(=O)N1CCN(S(=O)(=O)c2cccc(C(=O)NNC(=O)Cn3nc(C)cc3C)c2)CC1	-5	8403	-9	1	1.9	1	.

Of the compounds above, these have a furan ring, fused or not.
SMILES	PrP 5UTR inh	Autofluor counter	Mtb hypoxia inh	Mtb hypoxia inh growth	RN4220 kill	ugtP null kill	BJeLR viability
COc1ccc(/C(C)=N/NC(=O)CNC(=O)c2ccco2)cc1	-6	3605	.	.	.	.	-1
O=C(NCc1ccco1)C12CN(Cc3ccccc3)CC1C(c1ccc([N+](=O)[O-])cc1)=NO2 (stereo not given)	-20	3637	-5	6	-2.3	-3	8
CCOC(=O)N1CCC(NC(=O)c2oc3c(F)cccc3c2C)CC1	-40	5773	9	4	0.0	12	2
Cc1ccc(C(=O)N/C(=C/c2cccs2)C(=O)NCc2ccco2)cc1	7	8546	.	.	.	.	-15

(listing goes on)
SMILES	PrP 5UTR inh	Autofluor counter	Mtb hypoxia inh	Mtb hypoxia inh growth	RN4220 kill	ugtP null kill	BJeLR viability
Cc1cccc2cc(CN(Cc3ccco3)C(=O)c3ccco3)c(=O)[nH]c12	-3	3657	2	3	1.2	6	3
CCOC(=O)c1ccccc1NC(=O)c1ccccc1NS(C)(=O)=O	-16	4356	.	.	1.0	-3	3
CC(OC(=O)c1ccc(NS(=O)(=O)c2ccc3[nH]c(=O)[nH]c3c2)cc1)C(=O)Nc1ccc(Cl)cc1 (stereo not given)	-22	3170	.	.	.	.	-8
CCOc1ccc(N2CC(C(=O)Nc3ccc(F)cc3F)CC2=O)cc1 (stereo not given)	-5	3678	5	-3	4.8	9	-3
COc1cccc(OCc2cc(C(=O)N3CCN(c4ccccc4OC)CC3)no2)c1	-41	5640	-9	1	4.1	-4	-10
Cc1cc(C(=O)CSc2nnc(-c3ccco3)o2)c(C)n1-c1ccc2c(c1)OCCO2	-4	3587	8	-2	6.7	-20	-5
COc1cc(OC)c(OC)cc1/C=N/Nc1ncnc2c1[nH]c1ccccc12	-26	2127	.	.	.	.	0
Cc1cc(=O)[nH]c2ccc(S(=O)(=O)Nc3ccc(O)cc3)cc12	-19	4306	12	2	-0.4	-1	-3
COc1cccc(C=NN2C(=O)CSC2=S)c1O	.	.	15	15	5.5	12	.
CC(C)C(=O)NC(=O)COC(=O)/C=C/c1cccs1	-5	4759	-14	-3	3.2	13	-3
COc1cccc(C(=O)NCC(=O)NCc2cc(=O)n(C)c(=O)n2C)c1	-37	5470	5	5	3.1	5	7
O=C(CSc1ccc(Cl)cc1)Nc1cccc(-c2nnc(-c3ccco3)o2)c1	-49	2469	1	-2	5.9	1	-21
CNC(=O)c1ccsc1NC(=O)CN1C(=O)CCC1=O	-17	4433	-1	2	-1.2	2	2
CCOC(=O)Cc1nn(C)c(=O)c2ccccc12	-33	9515	1	10	3.4	13	-8
CCCC(=O)Nc1ccc(N2CCN(C(=O)c3cc4ccccc4o3)CC2)cc1	-26	6076	-4	2	0.0	5	3
O=C(NC(=O)c1ccccc1Cl)Nc1ccc(-c2cnco2)cc1	-35	4812	10	7	9.0	-20	-1
OC(c1ccc(F)cc1)C(c1ccccc1)N1CCOCC1 (stereo not given)	-2	2472	-1	4	8.0	2	-1
O=C(Nc1ccc2c(c1)OCCO2)C1CCN(C(=O)c2ccc([N+](=O)[O-])cc2)CC1	-26	2126	10	3	3.1	5	0
Oc1ccc(-n2cccc2/C=N/n2cnnc2)cc1	-6	3399	.	.	.	.	-5
CCc1c(O)c(/C(C)=N\O)c(=O)n(-c2ccccc2)c1-c1ccccc1	-16	7643	.	.	.	.	3
O=C(c1ccc2c(c1)OCO2)N1CCC2(CC1)Oc1ccc(Cl)cc1C(=O)C21CC(c2ccccc2)=NO1 (stereo not given)	-6	4021	3	12	2.6	-5	-1
C=CCN1C(=O)C(=c2sc3nc(=O)c(Cc4ccccc4)nn3c2=O)c2ccccc21	.	.	7	11	5.0	14	.
CCC(=O)c1ccc(OCC(=O)OCC(=O)N(CCC#N)c2ccc3c(c2)OCCO3)cc1	-10	3876	-2	8	3.6	1	.
Cc1ccc(NC(=O)CCC(=O)N/N=C/c2cccs2)cc1C	-35	2011	.	.	.	.	3

At a glance, part of the list above:
SMILES	PrP 5UTR inh	Autofluor counter	Mtb hypoxia inh	Mtb hypoxia inh growth	RN4220 kill	ugtP null kill	BJeLR viability
CNC(=O)c1ccsc1NC(=O)CN1C(=O)CCC1=O	-17	4433	-1	2	-1.2	2	2
CCOC(=O)Cc1nn(C)c(=O)c2ccccc12	-33	9515	1	10	3.4	13	-8
CCCC(=O)Nc1ccc(N2CCN(C(=O)c3cc4ccccc4o3)CC2)cc1	-26	6076	-4	2	0.0	5	3

More results
SMILES	PrP 5UTR inh	Autofluor counter	Mtb hypoxia inh	Mtb hypoxia inh growth	RN4220 kill	ugtP null kill	BJeLR viability
CSc1ccc(S(=O)(=O)Nc2ccc(NC(C)=O)cc2)cc1	-19	4151	.	.	-1.1	10	7
COc1cccc(N=Cc2c[nH][nH]c2=O)c1	-11	9794	10	6	2.9	2	3
CCCOc1ccc(-c2nnn(CC(=O)Nc3cccc(C(=O)OC)c3)n2)cc1	-9	5305	4	-1	1.0	1	-7
COc1ccccc1CNC(=O)C1CCN(C(=O)[C@@H]2Cc3ccccc3CN2)CC1	-17	6111	-4	-11	1.3	3	1
COc1cc2c(cc1OC)/C(=C/C(=O)c1ccc(C)cc1)NCC2	.	4515	6	-3	-0.4	4	0
CCc1cc2c(=O)n(-c3ccc(Br)cc3)cnc2s1	-34	4856	.	.	2.6	-3	5
COc1ccc(C(=O)C(Cc2ccccc2)N(C)C)cc1 (stereo not given)	-24	16157*	17	4	1.3	6	-5
CCOc1ccc(CNC(=O)CCC(=O)N2CCSc3ccccc32)cc1	-17	4185	3	-1	1.9	-6	4
CC(C)Cc1ccc(CN2CCC(n3nccc3NC(=O)C3CCCC3)CC2)cc1	-1	5295	6	5	-1.9	-9	2
Cc1ccc(NC(=O)CN(C)CC(=O)Nc2sc3c(c2C(N)=O)CCC3)cc1	-8	5319	-2	5	4.3	3	-2
O=C(O)c1cccc(Nc2nc3ccccc3nc2NS(=O)(=O)c2cccs2)c1	-2	5531	-3	2	4.3	3	-5
CC(=O)N[C@H]1[C@H](Oc2ccc3c(c2)CCC2C3CC[C@]3(C)C(=O)CCC23)O[C@H](CO)[C@@H](O)[C@@H]1O (stereo not given in full)	-12	3215	9	4	3.9	13	10
c1ccc(N2CCOCCOCCOCCOCC2)cc1	1	4224	3	0	5.8	5	3
CCCn1c(=O)c2ccccc2n2c(SCc3nc4ccccc4s3)nnc12	-67	5435	16	6	6.4	17	-4
CC1CC(=NNC(=S)NCc2ccccc2)CC(C)(C)C1 (stereo not given)	.	.	0	2	2.3	66	.
Cc1cccc(/C=C(\C(=O)C(=O)O)c2ccc3ccccc3n2)c1	-72	2675	4	-1	7.1	-6	13
COc1ccc(CCNC(=O)CNC(=O)Cn2ccc3ccccc3c2=O)cc1OC	-30	4329	-1	2	3.7	13	-1
COc1cc(C(=O)NCCc2ccccc2)ccc1OCC(=O)N1CCOCC1	0	.	1	-3	2.3	4	.
O=C(Nc1cnn(Cc2c(Cl)cccc2Cl)c1)C(c1ccccc1)c1ccccc1	-6	4266	.	.	-12	25	13
Cc1ccc(N(C)C(=O)C2CCCN2S(=O)(=O)c2ccc3c(c2)n(C)c(=O)c(=O)n3C)cc1 (stereo not given)	-22	4392	3	-3	5.0	3	3
COc1ccc(C=NNC(=S)NCCc2ccccc2)cc1	.	.	15	-8	11	8	.
O=C(CSc1ccccn1)N1CCCC(Nc2ccc(F)c(F)c2)C1 (stereo not given)	1	6512	-5	9	-0.8	-5	-6
CCCNC(=O)N1[C@H]2CC[C@@H]1C(C(=O)OC)=C(c1cccc(OC)c1OC)C2	-18	4096	.	.	.	.	11
CCOc1cc(/C=N/NC(=O)c2cccs2)ccc1OC(=O)N1CCOCC1	-13	2559	.	.	.	.	1
CC(=NN=C(N)N)c1cc(Cl)ccc1Cl	.	.	-6	-10	-0.9	2	.
CCC(C)c1ccc(-n2c(=O)c3ccccc3n3c(=S)[nH]nc23)cc1 (stereo not given)	-24	3295	-1	-7	3.1	1	-3
CCCN1CCN(C(=O)c2cc(COc3ccc(F)c(F)c3)on2)CC1	-15	6030	7	7	2.1	5	11
Cc1c(Cl)c(C(F)(F)F)nn1CC(=O)NN	-4	2433	5	3	1.1	-1	3
CC(=O)NC(Cc1ccccc1F)C(=O)NC1CCN(C(=O)c2cnccn2)CC1 (stereo not given)	-20	7900	-3	-5	-5.2	4	4
Cn1ncc(Br)c1C(=O)NC1CCCC1	-17	5217	14	5	1.2	6	14
O=C(NCCCN1CCCC1=O)Nc1ccc([N+](=O)[O-])cc1	-12	3590	2	5	0.0	0	0
COc1ccccc1N1CC(C(=O)Nc2nnc(SCC(=O)NCC3CCCO3)s2)CC1=O (stereo not given)	-1	6049	9	24	2.0	3	0
CC12CCC(c3n[nH]c(=S)nc31)C2(C)C (stereo not given)	-14	9779	-7	-8	8.6	8	-12
COc1cccc(OP(=O)(Nc2ccccc2)Oc2cccc(OC)c2)c1	-21	3458	-5	2	3.7	5	6
Cc1sc(NC(=O)c2ccccc2)c(C#N)c1-c1ccccc1	-142	2148	-3	7	-3.0	33	5
O=C(Cc1ccccc1)NCC(=O)Nc1cccc(Cl)c1	-10	3419	17	15	1.3	3	-16
COc1ccc(OCC(=O)NCC(c2cccs2)N2CCOCC2)cc1 (stereo not given)	-29	4975	5	7	1.0	-1	-11
O=C1C2C3C=CC(C3)C2C(=O)N1c1ccc(S(=O)(=O)Nc2nccs2)cc1 (stereo not given)	-12	4190	1	2	6.8	7	-2
O=C(O)CCCn1nc(C(F)(F)F)c2c1CCCCC2	-11	4701	6	5	3.4	-3	9
CS(=O)(=O)N1CCN(c2cnn(-c3ccccc3)c(=O)c2Cl)CC1	-26	4269	7	-2	-1.2	2	3
O=C(CN1C(=O)c2ccccc2S1(=O)=O)Nc1ccc([N+](=O)[O-])cc1	1	6057	5	6	5.8	5	.
CCOC(=O)c1nnn(-c2nonc2N)c1CN(C)C1CCCCC1	-23	4469	.	.	1.4	-6	3
COc1ccccc1C=NN1CCCCCC1	.	3777	-5	12	8.5	2	.
Cc1ccccc1S(=O)(=O)N1CCN(C)CC1	-20	4004	10	0	2.4	14	-9
CC1=CC(C)C2C(=O)N(c3ccccc3)C(=O)C2C1 (stereo not given)	-28	7636	4	10	-0.7	-1	1
CCOC(=O)C(C(=O)Nc1ccccn1)C1CCCCC1 (stereo not given)	-8	6719	4	3	2.1	1	-5
CCCCN1CCc2[nH]c(=S)[nH]c(=O)c2C1	-4	2005	13	4	1.8	4	-4
Cc1cc(=O)oc2cc(OCC(=O)Nc3nnc(CC(C)C)s3)ccc12	-23	4905	.	.	-7.4	6	1
C[C@@H]1CN([C@H](C)CO)C(=O)c2cccc(NC(=O)c3ccncc3)c2O[C@@H]1CN(C)Cc1ccc(C(=O)O)cc1	-7	4016	5	13	16	17	.
CCCn1nc(C(=O)Nc2cccc(C(=O)OC)c2)c2ccccc2c1=O	-19	4202	3	8	5.6	-4	-7
